AID504770 = E. coli YBA685 growth inhibition, screen for V. cholerae RctB inhibitors; E. coli YBA685 rctB-dependent plasmid, OD600 growth, 3 h; stronger effect = lower value; z-score (no concentration beside the values); 130,000 compounds, 0.27% hits;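 active = z-score under -2 on both plates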;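 note: wells of about 30 µL received 100 nL stock; score is relative to mean and SD of the test wells; the first replicate is given; strong numbers were not always called active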
CapD inh = inhibitors of Bacillus anthracis CapD enzyme; AID 492967; z-score (no concentration beside the values); purified CapD enzyme, fluorescence intensity read-out; stronger effect = lower value; some hits fall short of the stated cut; 140,000 compounds, 0.23% hits;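 active = z-score under -4 in either of two replicates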;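 note: stock transfer was 100 nL into about 40 µL; score is relative to mean and spread of the plate; one replicate is shown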
An asterisk follows results filed as active; nt = no result given; & = joins results of further samples. Rows were taken by chance, and some 0.39% of all compounds hit somewhere here.

Structure	AID504770	CapD inh
CSc1nc(NC(N)=S)nc(NC(C)C)n1	-0.4	nt
COC(=O)c1cc(OC)c(OC)cc1NC(=S)N1CCN(C(=O)c2ccco2)CC1	-0.9	0.49
O=C(NC1CCN(C(=O)C2CCCCC2)CC1)c1ccccc1	-0.45	-0.21
CC1=C(C(N)=O)C(c2ccco2)C(C(N)=O)=C(C)N1	-0.85	0.93
CC1=C(C(=O)OC2CCCCC2)C(c2coc3ccc(C)cc3c2=O)C2=C(CC(C)(C)CC2=O)N1 (stereo not given)	nt	0.47
COc1ccc(OC)c(CCNC(=O)Cn2cccc2C(=O)c2ccccc2)c1	0.2	0.78
CCc1ccc(C2=NN(c3ccccc3)C3(SC(C(C)=O)=NN3c3cccc(Cl)c3C)c3ccccc32)cc1 (stereo not given)	nt	-0.11
CCNc1ccc2c(cc1=O)[C@@H](NC)CCc1cc(OC)c(OC)c(OC)c1-2	0.55	-3.1
O=C(NC(=S)Nc1cccc(C(F)(F)F)c1)c1ccccc1	0.15	-0.07
C/C=C(\C)C(=O)Nc1ccc(N2CCOCC2)cc1	0.75	0.32
O=C(Nc1ccc(N2CCOCC2)cc1)Nc1cccc(C(F)(F)F)c1	-0.3	nt
CCOC(=O)C1=C(C)N=c2s/c(=C\c3ccc(-c4ccccc4C(=O)O)o3)c(=O)n2C1c1ccc2c(c1)OCO2 (stereo not given)	nt	-0.59
S=C(NCCc1ccccc1)NNc1nc2ccccc2o1	0.5	nt
COc1cc(/C=C2/C(=O)N(c3ccc(Cl)c(C(=O)O)c3)N=C2C)ccc1OC(=O)c1cccs1	nt	-0.83
O=C1c2ccccc2C(=O)N1CC1c2ccccc2CCN1S(=O)(=O)c1ccc(OC(F)(F)F)cc1 (stereo not given)	nt	-1.5
COc1cccc(-c2cc(C(=O)NCc3cccnc3)on2)c1	1	-0.21
CN1CCC(N(C)C(=O)CCCc2nc3ccccc3s2)CC1	-0.1	nt
Cc1nc(Cc2nnc(SCc3cc4ccccc4nc3Cl)o2)cs1	-0.35	nt
CCOC(=O)COc1ccc2c(c1)c(C(=O)OCC)c(C)n2CC	-1	0.4
COC(=O)c1ccc(Oc2nc(N(C)C)nc(N(C)C)n2)cc1	nt	0.15
CC(C)(C)OC(=O)N1CCC2(CC1)C(C#N)=C(N)OC1=C2C(=O)CCC1	-0.2	nt
O=C(O)/C=C/C(=O)c1ccc(F)cc1	-2	-0.28
CCOC(=O)C(Cc1c[nH]c2ccccc12)NS(=O)(=O)c1ccc(Cl)cc1 (stereo not given)	nt	-0.13
CCOc1ccc(NC(=O)CC2C(=O)N(Cc3ccco3)C(=S)N2CCNC(C)=O)cc1 (stereo not given)	0.4	-0.27
COc1ccc(NC(=O)c2scc(S(=O)(=O)C(C)C)c2N)cc1	-0.55	-1.2
COc1cc(OC)cc(C2NC(C(=O)O)CS2)c1 (stereo not given)	nt	0.41
NC(=O)COC(=O)c1cc2nc(Nc3ccccc3)sc2s1	-2.1	nt
COc1ccc(S(=O)(=O)NCc2ccc(C(=O)NCCCN3CC(C)CC(C)C3)cc2)cc1 (stereo not given)	-0.6	0.29
CC(=O)Nc1ccc2c(c1)sc(=NC(=O)c1ccc3ncsc3c1)n2C	0.1	0.41
Cc1ccc(S(=O)(=O)Nc2ccc3[nH]ccc3c2)cc1	-0.3	-0.34
N#Cc1ccc(COC(=O)Cc2noc3ccccc23)cc1	0.45	nt
COC(=O)CCCCCCCC(=O)Nc1ccc(OC)cc1OC	nt	0.01
Cc1ccc(-c2n[nH]c3c2C(c2ccc(C(C)C)cc2)N(c2ccc(F)cc2)C3=O)cc1 (stereo not given)	nt	-0.33
CCOc1ccc(S(=O)(=O)N2CCC(C(=O)N/N=C/c3cc(C)n(CC(C)C)c3C)CC2)cc1	0.05	nt
COc1ccc(C(=O)c2nnn(-c3cc(Cl)cc(Cl)c3)c2C)cc1	nt	-0.5
CSc1nc(C)nc(N(C)C)c1C#N	-0.9	-1
Cc1ccc(C2(O)CN(c3ccccc3C)C3=[N+]2CCS3)cc1 (stereo not given)	nt	0.27
NS(=O)(=O)c1cc(C(=O)NCCc2ccc3c(c2)OCCO3)ccc1Cl	-0.8	nt
Cc1ccc(NC(=O)c2sc3ncn(CC(=O)Nc4ccc(C)c(Cl)c4)c(=O)c3c2C)c(Br)c1	nt	-1.1
C=CCNC(=O)Cn1c(-c2ccc(F)cc2)nc2ccccc21	-1.1	nt
COc1cccc(C(=O)NNC(=O)c2ccoc2)c1	nt	0.055
CN(C(=O)c1cc(-c2ccco2)on1)c1ccccc1	0.4	0.28
Cc1cc(=O)oc2cc(NC(=O)C3CCCC3)ccc12	2.4	106
CCNc1nc(-c2cc3ccccc3o2)cs1	-0.35	nt
Clc1cccc(-c2nnc(-c3cccc(Cl)c3)o2)c1	1.1	0.59
Cc1nc2cc(NC(=O)NC(C)(C)C)ccc2n1C	-0.55	nt
C=CCNc1sc(C(=O)c2ccc(Cl)cc2)c(N)c1C#N	0.1	1.4
Cn1cccc1Cc1nnc(SCC(=O)N2CCc3ccccc32)n1CCc1ccccc1	0.2	11
Cc1ccc(-n2nc3c(N4CCCC(C(=O)NCCCN5CCCC5=O)C4)nnc(C)c3c2C)cc1 (stereo not given)	-0.65	21
CCCC(=O)Nc1cccc(-c2nc3ccccc3o2)c1	-0.3	2
CN(CC(=O)Nc1cccnc1)S(=O)(=O)c1ccc(Br)cc1	-0.9	-0.01
CC(=O)Nc1ccc(C2SCC(=O)N2Cc2ccc3c(c2)OCO3)cc1 (stereo not given)	-0.3	nt
O=c1c(Cl)c(O)c2ccccc2n1Cc1ccccc1	-0.25	4.8
Cc1cccc(-c2noc(-c3ccccc3)n2)c1	1.6	-0.41
COc1ccc2c(=O)c(-c3cscn3)c(C(F)(F)F)oc2c1	-0.1	0.46
Cn1c(=O)n(C)c2cc(/C=C(\C#N)C(N)=C(C#N)C#N)ccc21	1.4	nt
CC1(C)CC(=O)c2cc3c(N)c(C(=O)Nc4ccc(Cl)c(Cl)c4)sc3nc2C1	nt	-0.8
Cc1ccc(CS(=O)(=O)CCC(=O)NC2CC2)cc1	-0.35	-1.1
CCc1ccc(-c2nc(CS(=O)CC(=O)NCc3ccccc3)c(C)o2)cc1 (stereo not given)	0	1.2
CC(=O)Nc1cc2cc(-n3cccc3)ccc2oc1=O	2	0.41

Next structures follow:
Structure	AID504770	CapD inh
O=C1Nc2ccccc2C12OCCO2	nt	-0.47&-0.52
CCOC(=O)C(NC(=O)c1ccc(F)cc1)(Nc1sc2c(c1C#N)CCC(C)C2)C(F)(F)F (stereo not given)	nt	0.2
CC(C)(C)OC(=O)N1CCN(C(=O)Nc2ccc(C(=O)O)cc2)CC1	-0.3	0.54
COc1cc(CN2CCC(NC(=O)N(Cc3ccco3)Cc3ccccc3OCc3ccccc3)C2)cc2c1OCO2 (stereo not given)	nt	-0.9
O=C(c1ccc(F)cc1F)N1CCN(c2cc(N3CCCCC3)c(F)cc2[N+](=O)[O-])CC1	nt	-0.09
O=C(c1cccs1)N1CCC(n2cccc2)CC1	nt	-0.025
Cc1cc(-n2c(C)cc(C(=O)COc3ccc4ccc(=O)oc4c3)c2C)no1	-0.15	nt
C=CCN(C(=O)c1ccc(OC)cc1)c1nnc(-c2ccncc2)s1	-0.65	0.12
O=C(Nc1ccc(-c2nc3ccccc3o2)cc1)c1ccc(N2C(=O)C3C4C=CC(C4)C3C2=O)cc1 (stereo not given)	nt	2.9
COC(=O)C1=C(C)NC(C)=C(C(=O)OC)C1c1ccccc1	1.1	3.3
O=C(CCSc1nnnn1-c1ccccc1)Nc1ccc2c(c1)OCO2	-0.2	nt
CN(C)C(=O)COC(=O)c1ccc2ccccc2n1	-0.35	nt
N#Cc1cn(CCOC(=O)c2cccc(C(F)(F)F)c2)c(=O)[nH]c1=O	nt	0.49
CC(Cc1ccc(O)cc1)NCC(O)c1cc(O)cc(O)c1 (stereo not given)	0	0.38&5.5
NC(=O)c1sc(-c2ccsc2)cc1NC(=O)/C=C/c1ccsc1	0.7	1.1
O=C(O)Cc1csc(-c2cnccn2)n1	1.4	14
Cc1cc(C)nc(OC(Cc2cnc3ccccc3n2)c2cccc(C(F)(F)F)c2)n1 (stereo not given)	nt	-0.11
CCOC(=O)c1ccc(NC(=O)CSc2nc3cc(C(=O)OC)ccc3c(=O)n2CCN2CCOCC2)cc1	nt	-2
CCC(=O)Nn1cnc2c(c1=O)C1(CCCCC1)Cc1ccccc1-2	-0.9	nt
CN1C(=O)C(=Cc2cc3c(cc2Cl)OCO3)C(=O)N(C)C1=S	-0.05	1.6

Rewritten as labelled records: entries from further up.
Cc1ccc(NC(=O)c2sc3ncn(CC(=O)Nc4ccc(C)c(Cl)c4)c(=O)c3c2C)c(Br)c1
  AID504770 = nt	CapD inh = -1.1

Cc1cc(C)nc(OC(Cc2cnc3ccccc3n2)c2cccc(C(F)(F)F)c2)n1 (stereo not given)
  AID504770 = nt	CapD inh = -0.11

A stretch from the list above:
Structure	AID504770	CapD inh
NS(=O)(=O)c1cc(C(=O)NCCc2ccc3c(c2)OCCO3)ccc1Cl	-0.8	nt
Cc1ccc(NC(=O)c2sc3ncn(CC(=O)Nc4ccc(C)c(Cl)c4)c(=O)c3c2C)c(Br)c1	nt	-1.1
C=CCNC(=O)Cn1c(-c2ccc(F)cc2)nc2ccccc21	-1.1	nt
COc1cccc(C(=O)NNC(=O)c2ccoc2)c1	nt	0.055

Other entries follow.
Structure	AID504770	CapD inh
CSc1ncc(C(=O)Nc2ccnn2Cc2ccccn2)n1-c1ccc(F)cc1	-0.55	nt
Cc1ccc(CN2C(=O)C3CCCN3c3ccc(C#N)cc32)cc1 (stereo not given)	0.7	0.7
CCCn1c(=NC(=O)C(C)(C)C)sc2cc3c(cc21)OCO3	0.9	nt
CCN(CCOC(=O)NCc1ccncc1)c1ccc(N=Nc2ccc([N+](=O)[O-])cc2)cc1	nt	-1.6
O=C(CCc1ccccc1)N1CCN(Cc2ccc3c(c2)OCO3)CC1	1.4	-0.49
COc1ccc(NC(=O)C(NS(=O)(=O)c2ccc3c(c2)oc(=O)n3C)C(C)C)cc1OC (stereo not given)	-0.2	-1.1
CCOC(=O)c1sc(NC(=O)c2cc(=O)c3ccccc3o2)cc1C	1.5	-0.88
Cn1c(N)c(C(=O)Cn2cc(S(=O)(=O)N3CCCC3)ccc2=O)c(=O)n(C)c1=O	-0.25	nt
CC(Sc1nnnn1-c1ccccc1)C(=O)NCCC1=CCCCC1 (stereo not given)	0.65	nt
COC(=O)c1cc(-c2cccs2)on1	-1.2	2.9
COc1ccc(C2CC(=O)C3=C(C2)Nc2ccccc2NC3c2cc(OC)c(OC)c(OC)c2)cc1 (stereo not given)	nt	-0.55
CC(C)c1nc2ccc(Cl)cc2c2c1C(=O)N(NC(=O)c1cccs1)C2=O	nt	3.5
CCOC(=O)c1c(CSc2ccccc2)n(Cc2ccccc2)c2ccc(O)cc12	nt	-0.33
O=C(O)COc1ccc(-c2nc3ccccc3s2)cc1	-0.15	79
CCN(CC)CCNC(=O)c1c(-c2c(Cl)cccc2Cl)noc1C	nt	0.33
CC1(C)OC(=O)C(=C2C3C4CC5C3C(=C3C(=O)OC(C)(C)OC3=O)C3C2C4C53)C(=O)O1 (stereo not given)	0	nt
O=C(NCc1ccccc1)C1CCCN(C(=O)N2CCOc3ccccc32)C1 (stereo not given)	-1.2	0.45
CCOC(=O)N1CCC(NC(=O)CCc2c(C)nc3c(c(C)nn3-c3ccc(C)cc3)c2C)CC1	-0.75	2.6
Cc1cccn2cc(CNC(=O)c3ccccc3)nc12	0.2	0.36
CCN(CC)C(=O)CSc1nc(C)cc(C)n1	-0.25	nt
Cc1nc2scc(-c3cccs3)c2c(=S)[nH]1	1.1	nt
COc1cccc(OC(=O)c2cc3ccccc3oc2=O)c1	3	-0.27
O=C(CNC(=O)C1CCCCC1)OCc1cc(-c2ccccc2)on1	1.2	nt
Cc1ccccc1C(=O)Nc1ccc(-c2nc3ccccc3o2)cc1	0.6	nt
Fc1cccc(F)c1CNCC1NCCc2ccccc21 (stereo not given)	-0.45	0.63
CCOC(=O)C1=C(O)/C(=C/c2ccc(O)cc2)SC1=Nc1ccccc1	nt	-0.34
CCCCn1c(CNC(=O)c2ccccc2F)nnc1SCC(=O)Nc1sc2c(c1C(=O)OCC)CCC2	nt	-0.13
Nc1cc(Cl)ccc1C(=O)OCC(=O)c1ccc(F)cc1	-0.1	nt
CC(C)(C)NC(=O)C(C)(C)Oc1ccc(Cl)cc1	-0.75	nt
COc1ccccc1C1CCN(C(=O)c2ccc(N)cc2)CC1	0.4	0.88
OC(CNC1CCCCC1)CN1c2ccccc2Sc2ccccc21 (stereo not given)	0.1	-0.28
COc1ccc(Cl)cc1S(=O)(=O)N1CCN(c2cc(Cl)ccc2C)CC1	nt	0.055
CC(C)NC(=S)n1cc(C(=O)c2cc(Cl)cc(Cl)c2O)cn1	-1.1	-0.47
COCC(C)Nc1ncnc2c1c(-c1ccccc1)cn2-c1ccc(C)c(Cl)c1 (stereo not given)	0.3	-0.095
O=C(NN1CC(=O)N(C2CCCC2)C1=O)c1cccc2ncccc12	1.4	nt
CCCN(CCC)C(=O)CSc1ccc(C)cc1	-0.3	0.32
Brc1cc2c(cc1CSc1nnc(Cc3ccccc3)o1)OCO2	0.5	nt
C(=N\NC1=NCCCCC1)/c1cn(-c2ccccc2)nc1-c1cccnc1	-0.45	nt
Cc1ccc(NC(=O)c2c(NC(=O)C(F)(F)F)sc3c2CCC3)c(C)c1	nt	-0.62

Bioassay records: PubChem, ICCB-Longwood Screening Facility, Harvard Medical School
